RE007 growth inh: less growth of the S. pombe RE007 Vpr strain | 0.21% of 360,000 active | AID 651644 | Potency, µM (highest dose often 92.2 µM), without a hit: top-dose activity change, negative = less growth | S. pombe RE007 Vpr strain, BacTiter-Glo ATP luminescence, 24 h; control for the full effect not named in the record; active = well fitted falling curve with a large enough effect; inconclusive = small, poorly fitted or top-dose-only effect; inactive = no such curve, though single readings can be large or run the other way;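 also: nearly all actives have a fitted effect of over 50% in size; the assay follows cell death caused by Vpr and the record does not say whether a fall means rescue or toxicity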
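Fission yeast RE007 carrying one integrated HIV-1 vpr copy, seeded at OD 0.01 in PMG+AL medium with 23 nL pinned compound. Grown 24 h at 30 degrees; viability read by BacTiter-Glo luminescence after 5 min.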
2A StopGo: FMDV 2A StopGo reporter, luciferase signal; human cells with a luciferase reporter of 2A StopGo recoding; control for the full effect not named in the record; Potency, µM (top dose mostly 57.9 µM), for inactives: at the top dose signal change, negative = less light; 1.2% of 410,000 active; active = well fitted falling curve with a large enough effect; inconclusive = small, poorly fitted or top-dose-only effect; inactive = no such curve, though single readings can be large or run the other way; tested in HEK293T cells; also: nearly all actives have a fitted effect of over 45% in size; luciferase light after 4 h
Active calls of the source: *; ? = inconclusive; [ ] = dose if it differs, or a comment. % is scaled to controls: 0 for no effect and ±100 for the full control effect; potency is read from the fitted curve at half-maximal effect.

SMILES | RE007 growth inh | 2A StopGo
CC1=C(C(=O)N(C(C)C)C(C)C)CC(CC(=O)NC(c2ccccc2)c2ccccc2)C(=O)N1CCCN1CCCC1=O (stereo not drawn) | 0% | -17%
Cc1ccc(-c2cc(NC=O)c3ncc(-c4cnn(C)c4)n3c2)cc1 | 5%[18.4 µM] | -14%
COc1ccc(C(c2nnnn2-c2c(C)cccc2C)N2CCC3(CC2)C(=O)NCN3c2ccccc2)cc1 (stereo not drawn) | -11% | -25%
CC(C)CNC(=O)C1(C)CCCN1C(=O)CCc1cccs1 (stereo not drawn) | 7%[18.4 µM] | -15%
COc1ccc(NC2=Nc3ccccc3N[C@@]23C[C@H]2CCCC(=O)N4CC[C@@H](C3)[C@@H]24)cc1 | -12% | 18%
Cc1ccc(N2CC(C(=O)OCC(=O)Nc3c(C)cccc3C)CC2=O)cc1 (stereo not drawn) | -24% | -21%
Cc1ccc(Cc2c(-c3ccco3)nc3ccc(Cl)cn23)cc1 | -21% | ?
COc1cccc(-c2cnc(C(O)c3cc(Cl)cc(Cl)c3)[nH]2)c1 (stereo not drawn) | 2% | 11%
Cc1ccc([C@@H]2CC(=O)[C@@H]3CN(S(=O)(=O)c4ccccc4C)[C@H](c4ccc(Cl)cc4)C[C@@H]3N2S(=O)(=O)c2ccc(C)cc2)cc1 | 12% | ?
CN(Cc1cccc(C(F)(F)F)c1)C(=O)[C@H]1O[C@@H](n2ccc(N)nc2=O)[C@H](O)[C@@H]1O | 5% | -18%
O=C1c2ccccc2C(c2nnnn2-c2ccc3c(c2)OCCO3)N1C1CC1 (stereo not drawn) | 2% | 0%
COC(=O)[C@@]1(Cc2ccc(F)cc2)[C@H]2c3cc(C(=O)N4CCCC4)n(CCN4CCNC4=O)c3C[C@H]2CN1C(=O)c1ccccc1 | -2% | -10%
c1ccc(CNc2cccnc2)cc1 | -14% | 0%
O=C(c1cc(C2CCCCN2C(=O)OCCF)on1)N1CCOCC1 (stereo not drawn) | 8% | -19%
Cc1nc2ccc(C(=O)NCCCn3ccnc3)cn2c1N(C)CC1CCCCC1 | -17% | ?
COc1ccccc1Cc1c(-c2ccc(C)cc2)nc2ccc(Cl)cn12 | -7% | 29%
COc1ccc(CCNC(=O)c2ccc(F)c(S(=O)(=O)N3CCCCC3)c2)cc1 | -11% | ?
C[C@H]1CN([C@@H](C)CO)C(=O)CCCn2cc(nn2)CO[C@@H]1CN(C)C(=O)Nc1ccc(F)cc1 | 11% | -15%
COc1cccc(C(O)c2nc(-c3ccc(C)c(C)c3)cs2)c1 (stereo not drawn) | 1% | -25%
CCc1nc2c(OCc3ccc(Cl)cc3)cccn2c1N(C)C(=O)C1CC1 | -27% | -3%
COc1cc(CC(=O)Nc2c(-c3ccccc3)[nH][nH]c2=O)cc(OC)c1 | 5% | -17%
CCN1C(=O)[C@@H]2[C@@H]3CN(S(=O)(=O)c4ccc(C)cc4)[C@@H](c4cccc5ccccc45)[C@@H]3C(=O)C[C@@H]2C1=O | 13% | -9%
Cc1c(CN(C)C(=O)C2CCC(=O)N(Cc3ccccc3F)C2)[nH]c2ccccc12 (stereo not drawn) | 14% | ?
Cc1ccc(C(=O)N2c3ccccc3N=C(c3ccccc3)C2C(=O)NC(C)C)cc1 (stereo not drawn) | 6% | 32%[activator]
CC(C)n1ncc2c(C(=O)N3CCN(Cc4cccs4)CC3)cc(C3CC3)nc21 | 18% | 0%
COc1ccccc1-c1cnc2c(c1)C(=O)N([C@@H](C)CO)C[C@@H](C)[C@@H](CN(C)C(C)=O)O2 | -3% | -4%
CN(Cc1ccccc1)C(=O)c1ccc(NC(=O)Cc2ccc(NC(=O)C3CCN(C(=O)C4CCCC4)CC3)cc2)cc1 | -8% | -26%
CC12CCC3C(C1)C(C(=O)O2)C(=O)OC3(C)C (stereo not drawn) | -11% | 0%
O=c1ccn([C@@H]2O[C@H](CNCC3=Cc4cc(O)ccc4OC3)[C@@H](O)[C@H]2O)c(=O)[nH]1 | -15% | -15%
O=C(NCCCCc1ccccc1)c1cccc(NC(=O)C2CC2)c1 | 1% | -7%
COc1ccc(OC)c(CN2C(=O)c3ccccc3C2c2nnnn2C2CCCC2)c1 (stereo not drawn) | 11% | -6%
COc1cc(Cn2c3ccc(NC(=O)CC(C)(C)C)cc3c(=O)n2C)ccc1F | 8% | 2%
CCN1CCN(c2c(Cl)cccc2NC(=O)c2cc3ccccc3o2)CC1 | -5% | ?
C#CCOCCOCCOCCNc1nc(N2CCN(C(=O)Cn3cc(CC(C)O)nn3)CC2)nc(N2CCN(C(=O)[C@H]([C@@H](C)O)n3cc(CCCCN)nn3)CC2)n1 (stereo partly drawn) | -16% | -19%
CC(=O)CCC(=O)CNC(=O)CC[C@H]1O[C@@H](n2ccc(=O)[nH]c2=O)[C@H](O)[C@@H]1O | 4% | 2%
O=C(C[C@H]1CC[C@@H](NC(=O)Nc2ccc3c(c2)OCO3)[C@@H](CO)O1)NCc1ccccc1 | 1% | -20%
CN1C(=O)[C@H]2[C@@H](c3ccc(C(F)(F)F)cc3)N[C@]3(CCCN(Cc4ccc(Br)cc4)C3=O)[C@H]2C1=O | 21% | -14%
CC1(C(=O)NS(=O)(=O)c2ccccc2)CCN1C(=O)Cc1cc(F)ccc1F (stereo not drawn) | 1%[18.4 µM] | -13%
COC(=O)CN(CCCl)P1(=O)OCCCN1CCCl (stereo not drawn) | 1% | -18%
N#Cc1ccc(OCC(=O)NCCCN2CCCC2=O)cc1 | -2% | -17%

Of the compounds above, 2 contain a furan ring, fused or not:
SMILES | RE007 growth inh | 2A StopGo
Cc1ccc(Cc2c(-c3ccco3)nc3ccc(Cl)cn23)cc1 | -21% | ?
CCN1CCN(c2c(Cl)cccc2NC(=O)c2cc3ccccc3o2)CC1 | -5% | ?

Structural class: the entries above containing an NH in an aromatic ring.
SMILES | RE007 growth inh | 2A StopGo
COc1cccc(-c2cnc(C(O)c3cc(Cl)cc(Cl)c3)[nH]2)c1 (stereo not drawn) | 2% | 11%
COc1cc(CC(=O)Nc2c(-c3ccccc3)[nH][nH]c2=O)cc(OC)c1 | 5% | -17%
Cc1c(CN(C)C(=O)C2CCC(=O)N(Cc3ccccc3F)C2)[nH]c2ccccc12 (stereo not drawn) | 14% | ?
O=c1ccn([C@@H]2O[C@H](CNCC3=Cc4cc(O)ccc4OC3)[C@@H](O)[C@H]2O)c(=O)[nH]1 | -15% | -15%
CC(=O)CCC(=O)CNC(=O)CC[C@H]1O[C@@H](n2ccc(=O)[nH]c2=O)[C@H](O)[C@@H]1O | 4% | 2%

Next records.
SMILES | RE007 growth inh | 2A StopGo
COc1ccc(OCCN2CCC(C(=O)NC(c3ccc(F)cc3)c3ncccc3C)CC2)cc1 (stereo not drawn) | 1%[18.4 µM] | -9%
COc1cc(NC(=O)c2ccc(-c3ccnn3C)c3ccoc23)cc(OC)c1OC | -8% | 9%
C[C@@H]1CCCCO[C@H](CN(C)C(=O)CCC(F)(F)F)[C@@H](C)CN([C@H](C)CO)C(=O)c2cc(NC(=O)c3ccncc3)ccc2O1 | 3% | 0%
COc1ccc(OCC(=O)N/N=C/c2cccc3cccnc23)cc1 | -20% | 6%
CCC(=O)NCCc1nc(-c2ccccc2)no1 | 20% | 21%
COc1cccc(C(NC(C)=O)c2nc(-c3csc4ccccc34)cs2)c1 (stereo not drawn) | -10% | -2%
COc1ccc(CCN2CC(C(=O)OCC(=O)NC(Cc3ccccc3)C(C)=O)CC2=O)cc1OC (stereo not drawn) | -5% | -12%
O=C(/C=C/c1ccccc1[N+](=O)[O-])OCC(=O)N1CCN(c2ccccc2)CC1 | -16% | -21%
O=C(Nc1nc(-c2ccc3c(c2)OCCO3)cs1)c1ccc(Br)o1 | -3% | 88%[activator]
COc1ccc(OC(=O)COc2ccccc2C)cc1 | 2% | -7%
CCCOc1ccc(F)cc1-c1cc(C(=O)NCc2cccs2)[nH]n1 | 41%[18.4 µM] | -5%
COc1ccc(C(=O)c2ccc3oc(-c4ccc(OC)cc4)c(C#CCCO)c3c2)cc1 | 33% | -22%
C[C@H](CO)N1C[C@H](C)[C@@H](CN(C)C(=O)c2cccnc2)Oc2ncc(Br)cc2C1=O | 1% | -16%
Cc1noc(C)c1C(=O)N1CCC1(C)C(=O)NS(=O)(=O)c1ccccc1Cl (stereo not drawn) | 3% | -5%
CC(=O)Nc1ccc(-c2ccnc3c2CC(C)(C(=O)Nc2cccc(C(F)(F)F)c2)O3)cc1 (stereo not drawn) | 61% | ?
NC(c1csc(Nc2ccc(C(=O)NCCO)cc2)n1)C1CCCCC1 (stereo not drawn) | -11% | -22%
CCOC1=C2[C@@H](CN(S(=O)(=O)c3ccc(C)cc3)[C@H]2c2cccc3ccccc23)[C@H]2C(=O)N(C3CCCCC3)C(=O)[C@H]2C1 | 6% | 3%
COc1cc(Cl)ccc1OCc1cc(C(=O)N2CCN(C)C(=O)[C@@H]2C)no1 | 5% | 52%[activator]
CC(C)COC(=O)N1CCCCC1c1cc(C(=O)N2CCOCC2)no1 (stereo not drawn) | 0% | -4%
CC(C)(C(=O)N1CCC1(C)C(=O)NS(=O)(=O)c1ccc(Br)cc1)c1ccccc1 (stereo not drawn) | -19%[18.4 µM] | 16%
CCN1C[C@@H]2[C@@H]3C(=O)N(C)C(=O)[C@@H]3[C@](CC)(C1=O)N2C(=O)c1ccccc1 | 16% | -17%
CN(C)CCCNc1nc2cc(-c3ccc(C(=O)N4CCN(C)CC4)cc3)sc2c(=O)n1C | 4% | -7%
COC(=O)C1=C(C)N(CCCC(=O)O)C(=O)NC1c1cccc(OC)c1 (stereo not drawn) | 4% | -8%
Cc1cn([C@H]2C[C@H](O)[C@@H](CNC(=O)[C@H](N)Cc3cn(COCc4ccccc4)cn3)O2)c(=O)[nH]c1=O | -25% | -23%
COc1cc(CN2C[C@@H](CO)O[C@@H](n3cnc4c(N5CCN(c6ccccc6)CC5)ncnc43)C2)cc(OC)c1OC | -6% | ?
CCCS(=O)(=O)NC(=O)C1(C)CCCN(C(=O)c2ccccc2Br)C1 (stereo not drawn) | 11% | -6%
CCCCNC(=O)C1(C)CCCCN1Cc1ccc(-c2ccccc2)cc1 (stereo not drawn) | -17% | ?
CCOc1cc(/C=C/C(=O)OCC(=O)N(CC)C2CCS(=O)(=O)C2)cc(Cl)c1OC (stereo not drawn) | -4% | -19%
Cc1ccc2c(=O)n3c(nc2c1)C(Cc1ccc(O)cc1)NC(=O)c1cc2ccccc2cc1-3 (stereo not drawn) | 12% | ?
CC(=O)OC[C@@H]1CN(Cc2ccccc2)C[C@H](n2cnc3c(N(C)C(C)C)ncnc32)O1 | 1% | 10%

A run of entries from the list above:
SMILES | RE007 growth inh | 2A StopGo
Cc1cn([C@H]2C[C@H](O)[C@@H](CNC(=O)[C@H](N)Cc3cn(COCc4ccccc4)cn3)O2)c(=O)[nH]c1=O | -25% | -23%
COc1cc(CN2C[C@@H](CO)O[C@@H](n3cnc4c(N5CCN(c6ccccc6)CC5)ncnc43)C2)cc(OC)c1OC | -6% | ?

Further entries:
SMILES | RE007 growth inh | 2A StopGo
CN(C)c1nn2c(-c3ccccc3)nnc2o1 | -16% | -5%
CC(C)C1CCN(C(=O)C2CCC(=O)N(C3CCCCCC3)C2)CC1 (stereo not drawn) | 9% | 18%
NC(CCc1ccccc1)c1csc(Nc2nccc(C(F)(F)F)n2)n1 (stereo not drawn) | 11%[18.4 µM] | -7%
O=c1[nH][nH]c2c1C(c1ccc(Cl)c(Cl)c1)OC(CCc1ccccc1)C2 (stereo not drawn) | 3% | -21%
O=C(NCCCN1CCOCC1)c1onc(CSc2ccncc2)c1C(=O)NCCCN1CCOCC1 | 6% | 1%
CC(=O)Nc1ccc(NC(=O)CCCN2C(=O)C(c3ccccc3)Oc3cccnc32)cc1 (stereo not drawn) | -5% | -10%
CC1(C(=O)Nc2ccc3c(c2)OCCO3)CCC(=O)N1CCc1c[nH]c2ccccc12 (stereo not drawn) | -3% | -4%
CCN1C=C(C(C)=O)C(=O)CC1 | -3% | -13%
CC(=O)OCC1=C(C(=O)O)N2C(=O)[C@@H](NC(=O)Cc3ccccc3)[C@H]2SC1 | -7% | ?
COc1ccc(C2=Nc3ccccc3NC(=O)C2N(CCc2ccccc2)C(=O)c2cccs2)cc1 (stereo not drawn) | -14% | 28%
O=C(CSCC(=O)OCC(=O)N1CCN(C(=O)c2ccco2)CC1)Nc1ccc(Cl)cc1 | -1% | 1%
C=CCOc1ccc(/C=C/C(=O)OCC(=O)N2CCN(S(=O)(=O)c3ccc(C)cc3C)CC2)cc1 | 0% | -26%
O=C1NC[C@@H](CCCCN2CCN(Cc3ccccc3)C(=O)C2=O)N(CC2CCCCC2)C1=O | 3% | 42%[activator]
c1ccc(-c2ccc3nncn3c2)cc1 | -1% | -21%
CNc1[nH]c(=O)[nH]c(=O)c1N=Nc1cc(Cl)ccc1Cl | 0% | -14%
Cc1c(C(=O)N(C)Cc2ccc(F)cc2)sc(=O)n1Cc1ccc(Cl)c(Cl)c1 | 2%[18.4 µM] | -8%
NC(c1ccccc1)c1csc(Nc2ccc(C(F)(F)F)cn2)n1 (stereo not drawn) | 16% | -11%
O=C1Nc2ccccc2-n2nnnc2C1N1CCc2ccccc2C1 (stereo not drawn) | 7% | -6%
Cc1cc(Br)cn2c(Cc3ccsc3)c(-c3cccc(Br)c3)nc12 | 5% | ?
C[C@@H]1CN([C@@H](C)CO)C(=O)CCCn2nncc2CO[C@@H]1CN(C)S(=O)(=O)c1ccc2c(c1)OCCCO2 | -19% | -6%
Cc1nc2ccc(C(=O)Nc3ccc4c(c3)OCC(=O)N4)cn2c1N(C)C(=O)CCc1ccccc1 | 5% | -19%

A portion of the library; count on the stated rates, not on these rows.
